Assay outcomes (PubChem)
MLL AF4-AF9 inh – inhibitors of human MLL-AF4/AF9 interaction; actives 0.47% (n = 350,000); AlphaScreen, biotin-AF4 peptide binding to FLAG-AF9; P42568; AID 651704; inhibition, % at 10 µM;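 active = every replicate reaching a set inhibition limit, whatever the replicate mean, cut at about 25% in these data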;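 note: 0% = plate neutral control median and 100% = total signal loss; the record names both 10 and 1 µM as test concentration; the first replicate is given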
Target sequence (P42568 whole entry, looked up): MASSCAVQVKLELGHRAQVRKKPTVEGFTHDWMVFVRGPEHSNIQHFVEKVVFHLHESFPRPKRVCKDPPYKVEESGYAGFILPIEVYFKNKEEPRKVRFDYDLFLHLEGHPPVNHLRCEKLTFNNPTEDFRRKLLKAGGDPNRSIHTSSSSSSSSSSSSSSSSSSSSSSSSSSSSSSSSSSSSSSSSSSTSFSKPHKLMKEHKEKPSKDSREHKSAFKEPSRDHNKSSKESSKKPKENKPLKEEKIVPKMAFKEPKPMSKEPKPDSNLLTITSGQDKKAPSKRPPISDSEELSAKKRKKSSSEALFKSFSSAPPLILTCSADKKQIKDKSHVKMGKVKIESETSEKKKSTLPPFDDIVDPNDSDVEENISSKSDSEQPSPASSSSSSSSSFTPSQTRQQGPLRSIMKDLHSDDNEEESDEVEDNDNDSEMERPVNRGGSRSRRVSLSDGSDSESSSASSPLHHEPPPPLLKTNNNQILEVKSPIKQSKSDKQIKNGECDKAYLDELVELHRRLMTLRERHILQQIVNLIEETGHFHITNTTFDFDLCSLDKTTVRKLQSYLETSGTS
FGF22 binding – FGF22 (human) thermal shift binding; recombinant FGF22 thermal shift, SYPRO orange fluorescence; percent of sucrose octasulfate shift, DMSO zero; Q9HCT0; actives 1.5% (n = 340,000); calls only at 9.99 µM;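 active = melting point raised past a set limit in the mean and every replicate; three in four hits are not shown here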
Target sequence (Q9HCT0 whole entry, looked up): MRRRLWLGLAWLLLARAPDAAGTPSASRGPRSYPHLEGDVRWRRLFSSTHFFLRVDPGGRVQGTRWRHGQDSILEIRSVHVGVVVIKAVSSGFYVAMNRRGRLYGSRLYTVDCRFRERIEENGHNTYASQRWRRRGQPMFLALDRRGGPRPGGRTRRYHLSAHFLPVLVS
Ecoli rRNA inh – inhibits bacterial ribosomal RNA function over humanized ribosomes; E. coli WT GFP vs humanized-ribosome RFP mutants, fluorescence, 24 h; hits give low values; DMSO median 0, no signal -100; GFP signal change (wild-type ribosome), % (concentration not given with the values); actives 1.6% (n = 350,000); AID 720706;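 active = significant combined selectivity score with lowered wild-type GFP, culture density cut under 30%, mutant RFP and density less affected; inactive = any of these conditions unmet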; note: one replicate is shown; some compounds called inactive have numbers as strong as hits
Ecoli rRNA inh OD600 – recorded beside Ecoli rRNA inh, whose call it bears; OD600 change, %; measured here: OD600 growth;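 optical density of the mix in the first replicate; 0 = DMSO median and -100 = no signal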
Ecoli rRNA inh RFP – further read-out of Ecoli rRNA inh, marked with its call; RFP signal change, %; measured here: RFP humanized mutant strains;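 first replicate; 0 = DMSO median and -100 = no signal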
Active calls of the source: *; i = inactive; . = no result given.

Sample of the layout, 5 compounds:
SMILES	MLL AF4-AF9 inh	FGF22 binding	Ecoli rRNA inh	Ecoli rRNA inh OD600	Ecoli rRNA inh RFP
COc1ccc(CN(C)C[C@H]2Oc3ccc(NS(=O)(=O)c4c(C)noc4C)cc3C(=O)N([C@H](C)CO)C[C@@H]2C)cc1	-1.2	i	3	5	-1.5
CN1C(=O)c2cc(NS(=O)(=O)c3cccc(F)c3)ccc2OC[C@H]2O[C@@H](CC(=O)NCCN3CCCCC3)CC[C@H]21	-0.9	i	1	4	-1.0
C[C@@H]1CN([C@@H](C)CO)C(=O)c2cc(C#CC3(O)CCCC3)cnc2O[C@H]1CN(C)C(=O)Cc1ccncc1	0.8	i	-3	-1	-1.5
Cc1noc(C)c1S(=O)(=O)N(C)C[C@@H]1Oc2ccc(NS(=O)(=O)c3cccs3)cc2CC(=O)N([C@@H](C)CO)C[C@H]1C	26*	i	0	1	-0.7
O=C(N[C@H]1C=C[C@@H](CC(=O)N2CCOCC2)O[C@H]1CO)c1ccc2c(c1)OCO2	-0.7	i	4	-1	-2.3

All compounds of this part, repeating the preview:
SMILES	MLL AF4-AF9 inh	FGF22 binding	Ecoli rRNA inh	Ecoli rRNA inh OD600	Ecoli rRNA inh RFP
COc1ccc(CN(C)C[C@H]2Oc3ccc(NS(=O)(=O)c4c(C)noc4C)cc3C(=O)N([C@H](C)CO)C[C@@H]2C)cc1	-1.2	i	3	5	-1.5
CN1C(=O)c2cc(NS(=O)(=O)c3cccc(F)c3)ccc2OC[C@H]2O[C@@H](CC(=O)NCCN3CCCCC3)CC[C@H]21	-0.9	i	1	4	-1.0
C[C@@H]1CN([C@@H](C)CO)C(=O)c2cc(C#CC3(O)CCCC3)cnc2O[C@H]1CN(C)C(=O)Cc1ccncc1	0.8	i	-3	-1	-1.5
Cc1noc(C)c1S(=O)(=O)N(C)C[C@@H]1Oc2ccc(NS(=O)(=O)c3cccs3)cc2CC(=O)N([C@@H](C)CO)C[C@H]1C	26*	i	0	1	-0.7
O=C(N[C@H]1C=C[C@@H](CC(=O)N2CCOCC2)O[C@H]1CO)c1ccc2c(c1)OCO2	-0.7	i	4	-1	-2.3
CN(C)C(=O)C[C@H]1C[C@H]2c3cc(NC(=O)Nc4ccccc4F)ccc3O[C@H]2[C@H](CO)O1	-1.2	i	4	4	-2.4
C[C@@H]1CN([C@@H](C)CO)C(=O)c2cc(NC(=O)CCC(F)(F)F)ccc2O[C@@H](C)CCCCO[C@H]1CN(C)S(=O)(=O)c1cccs1	-1.4	i	-2	-16	1.4
O=C(NCc1ccccc1)c1cc(C2COCCN2C(=O)c2ccc(Cl)cc2)on1 (centres undefined)	-4.3	i	1	-3	-0.2
C[C@@H]1CN([C@@H](C)CO)C(=O)c2cc(NC(=O)NC3CCCCC3)ccc2O[C@H]1CN(C)S(C)(=O)=O	-1.5	i	3	6	-1.7
CCNC(=O)[C@@H]1[C@@H](CO)[C@@H]2Cn3c(cccc3=O)[C@H]1N2C(=O)C1CCC1	1.7	i	3	16	-1.6
O=C(CCNC(=O)N1CC(=O)Nc2ccccc21)NCCc1ccc(Cl)cc1	2.6	i	13	13	-0.9
CC(C)C[C@@H]1COc2cccc(N3CCN(Cc4ccccc4F)CC3)c2S(=O)(=O)N1	4.0	i	-35*	-22*	-0.6*
CC1(C(=O)Nc2cnc3ccccc3c2)CCN1Cc1ccc2c(c1)OCCO2 (centres undefined)	0.0	i	-3	-9	2.1
C[C@@H]1CN([C@@H](C)CO)C(=O)c2cccc(NC(=O)c3ccc(-c4nccs4)cc3)c2O[C@@H]1CN(C)C(=O)Nc1cccc2ccccc12	-2.9	i	-4	-11	6.4
COC(=O)NC1CC2C=CC1C1C=CC21 (centres undefined)	-2.9	.	15	21	6.9
C/C=C/c1cnc2c(c1)C(=O)N([C@@H](C)CO)C[C@@H](C)[C@@H](CN(C)C(=O)c1cccc(F)c1)O2	-2.6	i	7	17	-4.0
O=C(C[C@H]1C[C@@H]2c3cc(NC(=O)CC4CC4)ccc3O[C@@H]2[C@H](CO)O1)NCCc1ccccc1	-0.3	i	0	-1	-0.2
O=C(Nc1cccc(F)c1)N[C@@H]1CC[C@@H](CCn2cc(Cc3ccccc3)nn2)O[C@@H]1CO	0.3	i	-2	0	0.8
O=C(CC1CC1)N1CC2(C1)[C@H](c1ccccc1)[C@H](CO)N2C(=O)c1cccnc1	0.6	i	4	6	-2.3
COc1ccc(CNC(=O)c2cn(Cc3ccccc3OC)c(=O)s2)cc1	-1.6	i	-20	-26	-14
O=C(Nc1ccccc1F)N1C[C@@H]2[C@H](c3ccccc31)[C@@H](CO)N2C(=O)C1CCOCC1	-2.4	i	4	11	-2.8
CCS(=O)(=O)NCC[C@@H]1CC[C@H](NC(=O)Nc2cc(Cl)cc(Cl)c2)[C@@H](CO)O1	-4.5	i	-3	-4	0.6
CN(C)CC(=O)N[C@@H]1CC[C@@H](CCNC(=O)C2CCCCC2)O[C@H]1CO	-1.0	i	1	-1	-0.3
CCC(=O)N1CC(=O)N2[C@@H](CO)[C@@H](c3ccc(C#CC4CCCCC4)cc3)[C@@H]2C1	1.1	i	1	8	-2.0
C[C@H](CO)N1C[C@H](C)[C@H](CN(C)S(=O)(=O)c2ccc(F)cc2)Oc2ncc(-c3cccc(F)c3)cc2C1=O	-13	i	3	-4	5.3
O=C(C[C@@H]1CC[C@@H](NC(=O)C2CCC2)[C@@H](CO)O1)Nc1nccs1	-0.9	i	2	11	-1.7
COc1ccc(-c2nc(NCCN(C)C)nc3ccsc23)c(C)c1	7.8	i	-3	7	0.4
CNC[C@H]1Oc2c(NC(=O)C3CCOCC3)cccc2C(=O)N([C@H](C)CO)C[C@@H]1C	-18	i	-1	13	1.7
C[C@@H]1CN([C@H](C)CO)C(=O)c2cc(NC(=O)CCCN(C)C)ccc2O[C@@H](C)CCCCO[C@H]1CN(C)C(=O)Nc1ccc(F)cc1	0.3	i	-1	-7	-1.9
C[C@H](CO)N1C[C@H](C)[C@@H](CN(C)C(=O)Cc2ccccn2)Oc2ncc(-c3ccncc3)cc2C1=O	-2.9	i	4	-1	-3.0

Continued.
Fields – MLL AF4-AF9 inh	FGF22 binding	Ecoli rRNA inh	Ecoli rRNA inh OD600	Ecoli rRNA inh RFP
O=C(NCC[C@H]1CC[C@H](NC(=O)Nc2cc(F)ccc2F)[C@H](CO)O1)Nc1ccc(Cl)cc1
 : 12	i	-59	-79	-18
COc1cc(C)ccc1S(=O)(=O)NC(=O)C1(C)CCN1C(=O)c1ccc(C(F)(F)F)nc1C (centres undefined)
 : -1.8	i	2	17	3.0
COC(=O)[C@@]1(Cc2ccc(F)cc2)[C@H]2c3cc(C(=O)N4CCCC4)n(Cc4ccccc4)c3C[C@H]2CN1C(=O)c1ccccc1
 : 5.8	i	14	7	6.4
C[C@@H]1CCCCO[C@H](CN(C)C(=O)c2ccncc2)[C@@H](C)CN([C@H](C)CO)C(=O)c2cc(NS(=O)(=O)c3ccc(Cl)cc3)ccc2O1
 : -5.4	i	2	4	-1.6
CCN(C[C@H]1[C@H](c2ccccc2)[C@@H](CO)N1S(C)(=O)=O)C(=O)C1CCCC1
 : -6.0	i	-1	0	0.7
C[C@@H]1CN([C@H](C)CO)C(=O)c2cc(NC(=O)Cc3ccccc3)ccc2O[C@@H]1CN(C)Cc1ccccc1
 : -2.2	i	0	5	-2.6
CCCNC(=O)N1C[C@H](C)[C@H](OC)CN(C)C(=O)c2cc(NS(=O)(=O)CC)ccc2OC[C@H]1C
 : 0.5	i	4	8	0.4
Cc1cccc(/C=C/c2ccccc2)n1
 : -2.6	i	6	8	1.4
COC(=O)C[C@H]1CC[C@H]2[C@H](COc3ccc(NC(=O)c4cccc(F)c4)cc3C(=O)N2C)O1
 : -1.8	i	-3	2	-1.9
CC(C)(C)Cc1c(-c2ccccc2)nc2ccc(Br)cn12
 : -2.6	i	10	0	-0.3
CN(Cc1ccccc1)C(=O)c1ccc(Nc2nc(CN)cs2)nc1
 : 1.7	i	4	16	-1.7
C/C=C/c1ccc2c(c1)O[C@H](CN(C)C(=O)NCCC)[C@@H](C)CN([C@H](C)CO)S2(=O)=O
 : -0.2	i	-4	0	-2.5
C[C@H]1CN([C@@H](C)CO)C(=O)c2cc(NC(=O)CCCCCC(=O)Nc3ccccc3N)ccc2O[C@@H]1CN(C)C(=O)Nc1ccc(F)cc1
 : 0.2	i	2	19	1.2
CC(C)NC(=O)N(C)C[C@@H]1OCCCC[C@@H](C)Oc2ccc(NC(=O)Nc3ccccc3)cc2C(=O)N([C@@H](C)CO)C[C@@H]1C
 : -0.3	i	2	4	1.1
CN1c2ccc(C#Cc3cccnc3)cc2[C@@H]2[C@@H](CCN2C(=O)C2CCOCC2)[C@H]1CO
 : 0.2	i	2	13	0.0
C[C@H](CO)N1C[C@H](C)[C@H](CN(C)C(=O)Cc2ccccn2)Oc2ncc(C#CC3CC3)cc2C1=O
 : -3.2	i	5	8	-2.2
O=C(Nc1ccccc1)[C@H]1[C@H](CO)[C@H]2Cn3c(cccc3=O)[C@@H]1N2C(=O)c1ccccc1
 : -7.1	i	3	12	-4.4
C[C@@H]1CCCCO[C@@H](CN(C)Cc2ccc(C(F)(F)F)cc2)[C@H](C)CN([C@@H](C)CO)C(=O)c2cc(NS(=O)(=O)c3cccs3)ccc2O1
 : 2.4	i	-1	-29	17
COCC#Cc1cnc2c(c1)C(=O)N([C@H](C)CO)C[C@@H](C)[C@H](CN(C)C(=O)Cc1cccnc1)O2
 : 0.1	i	-4	0	-4.0
N#C[C@H]1[C@H](c2ccc(C3=CCCCC3)cc2)[C@@H](CO)N1C(=O)Cc1ccncc1
 : 5.0	i	2	-4	0.3
Cn1cnc(CCNC(=O)C[C@H]2CC[C@H]3[C@@H](COC[C@H](O)CN3C(=O)Nc3ccccc3)O2)c1
 : 2.5	i	5	5	3.4
COc1ccc(-c2csc(C(C)(O)c3ccccc3)n2)cc1 (centres undefined)
 : 0.1	i	-19	-45	5.5
COc1ccc(-c2ccc3c(c2)O[C@@H](CN(C)C)[C@H](C)CN([C@H](C)CO)S3(=O)=O)cc1
 : 5.6	i	0	-10	-0.3
COc1cccc(CNC(=O)C[C@H]2C=C[C@@H](NS(=O)(=O)c3ccccc3OC)[C@H](CO)O2)c1
 : 0.3	i	-1	-1	-1.5
Cc1noc(C)c1NC(=O)N(C)C[C@@H]1Oc2c(NC(=O)Nc3ccc(F)cc3)cccc2C(=O)N([C@H](C)CO)C[C@@H]1C
 : 1.8	i	-4	-11	0.2
C[C@@H]1CN([C@@H](C)CO)C(=O)CCCn2nncc2CO[C@@H]1CN(C)Cc1cccc2c1OCCCO2
 : -3.7	i	1	3	-0.8
CCC(=O)Nc1ccc2c(c1)OC[C@H](C)N(C(=O)COC)C[C@@H](C)[C@H](OC)CN(C)C2=O
 : 4.9	i	1	-6	-1.0
Cc1cc(C(=O)Nc2cccc3c2O[C@@H](CN(C)C(=O)NC2CCCCC2)[C@H](C)CN([C@@H](C)CO)C3=O)n(C)n1
 : -0.6	i	-1	10	-4.1
CC(C)C#Cc1ccc2c(c1)O[C@@H](CN(C)C(=O)c1cnccn1)[C@H](C)CN([C@@H](C)CO)S2(=O)=O
 : -2.5	i	-6	-20	-4.2
C[C@H]1CN([C@@H](C)CO)C(=O)c2cc(NC(=O)NC3CCCCC3)ccc2O[C@H]1CN(C)Cc1ccc(Cl)c(Cl)c1
 : -1.2	i	0	1	1.4
C[C@H]1CN([C@@H](C)CO)S(=O)(=O)c2ccc(-c3cccc(C#N)c3)cc2O[C@H]1CN(C)C(=O)c1ccccc1
 : -0.1	i	-8	-4	4.8
C[C@@H]1CN([C@H](C)CO)C(=O)c2cc(NS(C)(=O)=O)ccc2O[C@@H](C)CCCCO[C@H]1CN(C)S(=O)(=O)c1ccccc1
 : 1.6	i	-4	-3	-0.2
Cc1ccc(S(=O)(=O)Nc2ccc3c(c2)C(=O)N([C@@H](C)CO)C[C@H](C)[C@@H](CN(C)C(=O)Nc2ccc(C(F)(F)F)cc2)OCCCC[C@H](C)O3)cc1
 : -2.1	i	5	1	-0.6
C[C@@H]1CN([C@H](C)CO)C(=O)c2cc(NC(=O)NC3CCCCC3)ccc2O[C@@H](C)CCCCO[C@H]1CN(C)Cc1ccc(C(F)(F)F)cc1
 : -1.4	i	-4	-3	-3.1
COc1ccc(NC(=O)Nc2ccc3c(c2)[C@@H]2C[C@@H](CC(=O)NCCc4ccccc4)O[C@H](CO)[C@@H]2O3)cc1
 : -17	i	-4	5	-2.2
CC(C)c1cn(CC[C@H]2CC[C@H](NC(=O)c3cccc(F)c3)[C@@H](CO)O2)nn1
 : -0.7	i	2	3	-0.2
C[C@H]1CN([C@@H](C)CO)C(=O)c2cc(C#CCN(C)C)cnc2O[C@H]1CN(C)C(=O)c1cccc(F)c1
 : -4.6	i	3	8	-5.1
O=C(Nc1ccc(C(F)(F)F)cc1)N[C@@H]1C=C[C@@H](CC(=O)N2CCCCC2)O[C@@H]1CO
 : -4.5	i	1	-5	-0.6

Not all compounds are listed. The share of hits here may be higher or lower than overall.
